Mtb MbtI inh: blocks the Mycobacterium tuberculosis siderophore enzyme MbtI | AID 493033 | P9WFX0 | inhibition, %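 (about 17 µg/mL by stock and volumes)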 | actives 0.89% (n = 100,000) | purified MbtI enzyme, fluorescence intensity read-out;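 active = above 50% in both replicates, above 80% if mildly self-fluorescent; inactive = the rest, strongly fluorescent compounds included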;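 also: 0% = mean of negative and 100% = mean of positive controls; one replicate is shown; some compounds called inactive have numbers as strong as hits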
Target sequence (P9WFX0 whole entry, looked up): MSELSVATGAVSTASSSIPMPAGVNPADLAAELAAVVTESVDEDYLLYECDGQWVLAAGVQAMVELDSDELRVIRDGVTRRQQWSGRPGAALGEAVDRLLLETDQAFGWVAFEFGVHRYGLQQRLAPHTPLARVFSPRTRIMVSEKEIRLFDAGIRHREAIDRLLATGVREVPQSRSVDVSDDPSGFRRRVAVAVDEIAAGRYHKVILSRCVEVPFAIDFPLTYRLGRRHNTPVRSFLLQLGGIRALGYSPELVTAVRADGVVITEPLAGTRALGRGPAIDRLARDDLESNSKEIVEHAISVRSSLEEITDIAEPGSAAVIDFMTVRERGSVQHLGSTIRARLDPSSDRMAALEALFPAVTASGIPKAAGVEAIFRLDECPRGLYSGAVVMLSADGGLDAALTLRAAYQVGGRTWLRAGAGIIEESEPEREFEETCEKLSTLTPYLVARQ
PV pol inh: inhibitors of poliovirus RNA polymerase binding and polymerization | P03300 | poliovirus polymerase elongation, fluorescence polarization; hits give low values | % elongation, % (compound at 16.7 µg/mL) | actives 0.66% (n = 150,000) | AID 588519; in the data active = % elongation below about 90%; also: some results filed as inactive read as strong as hits
Target sequence (P03300 1749-2209 limits assumed): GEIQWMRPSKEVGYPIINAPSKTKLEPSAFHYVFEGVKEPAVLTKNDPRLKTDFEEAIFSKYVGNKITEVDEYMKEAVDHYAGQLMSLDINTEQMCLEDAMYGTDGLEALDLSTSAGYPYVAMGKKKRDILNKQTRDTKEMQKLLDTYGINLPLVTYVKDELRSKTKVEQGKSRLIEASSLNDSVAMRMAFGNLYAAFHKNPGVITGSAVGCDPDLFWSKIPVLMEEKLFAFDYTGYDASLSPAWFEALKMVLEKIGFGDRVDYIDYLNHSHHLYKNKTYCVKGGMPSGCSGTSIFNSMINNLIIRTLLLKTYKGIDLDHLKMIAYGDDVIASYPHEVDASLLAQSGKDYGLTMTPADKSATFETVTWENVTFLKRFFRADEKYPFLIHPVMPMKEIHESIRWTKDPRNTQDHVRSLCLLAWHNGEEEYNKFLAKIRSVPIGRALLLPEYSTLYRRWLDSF
MenB inh: blocks the Mycobacterium tuberculosis MenB enzyme | P9WNP5 | MenB enzyme assay, absorbance read-out; some hits fall short of the stated cut | inhibition, %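 (about 12 µg/mL by stock and volumes)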 | actives 0.43% (n = 100,000);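 active = mean of two replicates above 30%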;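 also: 0% = no compound and 100% = wells with inactive enzyme; the first replicate is given; strong numbers were not always called active; inactives centre near -10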
PV pol inh intensity: second read-out of PV pol inh, no call of its own (marks repeat the call); % elongation; measured here: total intensity read-out; formula for this scale not given here;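 total fluorescence in place of polarization; lower means less elongation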
Numbers without * were called inactive; i = inactive; · = not tested or not shown.

Order of values: Mtb MbtI inh	PV pol inh	PV pol inh intensity	MenB inh
1. Cn1c2ccccc2c2nnc(SCC(=O)OCN3C(=O)c4ccccc4C3=O)nc21
 : -3	104	102	-24
2. NNC(=O)C1(O)c2ccccc2-c2ccccc21
 : 4	97	100	1
3. Cc1ccc(-c2nn(CCC(=O)O)cc2CCC(=O)O)cc1
 : -11	103	96	0
4. CCOC(=O)c1c(NC(=O)CSc2nnc(N)s2)sc2c1CCCC2
 : -5	103	102	-7
5. Cc1ccc2c(c1)NC(SCC(=O)NC(C)C)=NS2(=O)=O
 : -19	99	102	2
6. COC(=O)CN(C#N)c1nc(SC)nc(N(C)C)n1
 : 1	100	101	36
7. Cc1cc(Br)c(NC(=O)C2C(C)(C)C2(C)C)c(Br)c1
 : ·	102	104	-4
8. COc1cccc(NC2=C(C#N)C(=O)NC(c3cccc(OC)c3O)S2)c1 (configuration not stated)
 : 4	102	102	-10
9. OC(c1cn2cc(-c3ccccc3)nc2s1)(C(F)(F)F)C(F)(F)F
 : -4	100	100	0
10. C=Cn1c(C(=O)O)ccc1-c1ccc(OC)cc1
 : -32	101	103	-2
11. C=CCN1C(=O)CC(Nc2ccc(F)cc2)C1=O (configuration not stated)
 : -19	100	99	-15
12. O=C(CN1NS(=O)(=O)c2ccccc2C1=O)Nc1ccccc1OC(F)F
 : -16	99	104	-31
13. CC1CCN(S(=O)(=O)c2ccc3c(ccn3CCC(=O)NC(C)C)c2)CC1
 : -19	104	103	-26
14. COc1ccc(-c2oc3ncn(CCO)c(=N)c3c2-c2ccc(OC)cc2)cc1
 : -81	103	107	-24
15. Nn1c(SCC(=O)NC2CCCC2)nnc1C1COc2ccccc2O1 (configuration not stated)
 : 16	99	104	-63
16. COC(=O)c1ccc(/C=N/OCC(=O)N(C)C2CCCCC2)cc1
 : -6	97	102	-6
17. CCNS(=O)(=O)c1ccc(NC(=O)Nc2cccc(OC)c2)cc1
 : -12	101	103	-12
18. Cc1nc2ccccc2c2oc(C(=O)NC3CCN(Cc4ccccc4)CC3)cc12
 : 14	100	101	-29
19. CCC(=O)Nc1ccc2nc(C)n(Cc3ccccc3)c(=O)c2c1
 : 46	103	105	-6
20. CS(=O)(=O)N(CC(=O)N1CCc2ccccc2C1)c1ccc(F)cc1
 : 4	100	102	1
21. c1ccc(Nc2c3c(nc4nncn24)CCC3)cc1
 : 12	102	105	-2
22. c1ccc(Nc2ncnc3sc(-c4ccccc4)cc23)cc1
 : 53	108	104	13
23. O=C(/C=C1\SC(=O)NC1=O)Nc1ccccc1C(=O)O
 : -16	99	98	-1
24. C/C(CCc1oc2ccc(C)cc2c1-c1ccc(C)o1)=N\O
 : 47	102	101	-5
25. CCC1CN(C(=O)N2CCC(C(=O)NC)CC2)c2ccccc2O1 (configuration not stated)
 : -1	99	101	12
26. Cc1ccc(C)c(C(=O)CN2C(=O)c3ccccc3C2=O)c1
 : -4	·	·	-14
27. CCOC(=O)c1sc2c(c1C)C(c1cccs1)C1=C(CCCC1=O)N2 (configuration not stated)
 : 100	103	104	-37
28. N#CCO/N=C(\c1ccccc1)c1ccncc1
 : 0	98	100	-19
29. CC(C)CNC(=O)c1ccc(COc2cc(Cl)ccc2Cl)o1
 : ·	103	101	-9
30. COc1cc2nc(CN3CCN(S(=O)(=O)c4ccc5ccccc5c4)CC3)[nH]c(=O)c2cc1OC
 : i	102	105	8

Part of the list above in another layout:
[9] OC(c1cn2cc(-c3ccccc3)nc2s1)(C(F)(F)F)C(F)(F)F
[10] C=Cn1c(C(=O)O)ccc1-c1ccc(OC)cc1
[11] C=CCN1C(=O)CC(Nc2ccc(F)cc2)C1=O (configuration not stated)
[12] O=C(CN1NS(=O)(=O)c2ccccc2C1=O)Nc1ccccc1OC(F)F
entry no.,9,10,11,12
Mtb MbtI inh,-4,-32,-19,-16
PV pol inh,100,101,100,99
PV pol inh intensity,100,103,99,104
MenB inh,0,-2,-15,-31

Next records
Order of values: Mtb MbtI inh	PV pol inh	PV pol inh intensity	MenB inh
31. COc1ccc(NC(=O)C2CCCCN2)cc1OC (configuration not stated)
 : -8	100	101	1
32. O=C(COC(=O)C1CCCCC1)Nc1ncccn1
 : 10	92	116	-35
33. COc1ccc(C)cc1S(=O)(=O)N(C)CC(N)=O
 : -1	103	102	-28
34. Cc1nc2ccc(NC(=O)C3CCCN3S(=O)(=O)c3cccs3)cc2s1 (configuration not stated)
 : -3	106	102	-14
35. C=CCn1c2ccccc2c2nnc(SC(CC)C(=O)Nc3nc4c(s3)CCCC4)nc21 (configuration not stated)
 : -29	104	97	-4
36. O=C1c2ccccc2C(=O)N1/N=C/c1ccccc1
 : ·	109	111	-16
37. CN(Cc1ccccc1)C(=O)CCn1c(=O)c2cccn2c2cccnc21
 : -7	101	101	7
38. COc1ccc(-c2cc(C(=O)NCc3cccs3)c(C(F)(F)F)o2)cc1
 : -9	101	100	-20
39. CN(Cc1ccccc1)S(C)(=O)=O
 : ·	106	113	-18
40. Cc1ccc2c(c1)nnn2C1CCN(C(=O)N(c2ccccc2)c2ccccc2)CC1
 : 1	101	105	-28
41. CC(C)CC(=O)Nc1ccc(-c2cn3cccnc3n2)cc1
 : 105	99	100	-47
42. O=C(CN1C(=O)c2ccccc2C1=O)NCc1ccccn1
 : -3	103	109	-9
43. C=CCn1c(CCCO)n[nH]c1=S
 : ·	105	111	-26
44. Cn1c(O)c(C=Nc2ccccc2)c(=O)[nH]c1=S
 : 0	102	107	3
45. OCCNc1nc(-c2ccccc2)c(-c2ccccc2)s1
 : 6	103	103	·
46. Cc1ccc2c(c1)c1c3n2CCN(C(=O)CN2CCN(C(=O)c4ccco4)CC2)C3CCC1 (configuration not stated)
 : -30	103	102	-49
47. CCOC(=O)C1CCN(c2cnn(-c3nc4ccccc4s3)c(=O)c2Cl)CC1
 : -11	100	101	-20
48. Cc1ccc(NC(=S)N(CC(N)=O)C(C)C)cc1C
 : 13	97	97	-20
49. O=C(/C=C/c1cccc(F)c1)OCc1c(Cl)nc2sccn12
 : -3	104	105	·
50. Cc1cc(C(=O)OCC(=O)N2CC(C)CC(C)C2)c(C)o1 (configuration not stated)
 : -4	103	110	2
51. COc1ccc(N=Cc2ccc(-c3ccccc3)o2)cc1
 : -20	103	103	-60
52. CC(=O)NC1(c2ccccc2)CCN(C(C)=O)CC1
 : 2	105	104	25
53. CCC(=O)Nc1c2c(nn1C(C)(C)C)CSC2
 : 9	100	100	-21
54. COc1ccc2c(CN3C(=O)NC4(CCc5ccccc54)C3=O)cc(=O)oc2c1 (configuration not stated)
 : 103	45	238	3
55. CCn1nnc2cc(C(=O)Nc3ccc(N4CCCC4)cc3)ccc21
 : -15	100	109	-12
56. O=C(CN1CCN(S(=O)(=O)c2ccc3c(c2)OCCO3)CC1)N(Cc1ccccc1)Cc1ccccc1
 : -11	104	105	-21
57. N#C/C(=C\c1ccoc1)S(=O)(=O)c1ccccc1
 : 14	102	122	-21
58. CCCCn1c(C(F)(F)F)nc2c(=O)oc3ccccc3c21
 : -7	105	99	5
59. O=c1cccc2n1CC1CC(C2)N(c2nc(N3CCCCC3)nc(N3CCCCC3)n2)C1 (configuration not stated)
 : 14	103	103	-28
60. CC1CN(CC(=O)Nc2ncc(Cc3ccccc3F)s2)CC(C)O1 (configuration not stated)
 : 10	·	·	-36
61. O=C1Nc2ccccc2C1Cc1ccccn1 (configuration not stated)
 : -14	101	113	0
62. CCOc1ccc(Br)cc1C1CC(=O)Nc2c1ccc(C)c2C (configuration not stated)
 : -5	101	103	-20
63. COc1ccc(N2C(=S)SC3CS(=O)(=O)CC32C)cc1 (configuration not stated)
 : -7	103	102	-1
64. Cc1nn(-c2ccc(F)cc2)c2sc(C(=O)OCC(=O)N(C)C3CCS(=O)(=O)C3)cc12 (configuration not stated)
 : i	100	93	-20
65. CCc1ccc(-c2nc(-c3ccc(C)cc3)no2)cc1
 : -22	102	100	-24
66. Cc1ccccc1NC(=O)Nc1ccc(CN2CCCCC2)cc1
 : -17	106	102	-21
67. O=C(NC1CC1)C1C2C=CC3(O2)C1C(=O)N(C1CC1)C3C(=O)NC1CCCCC1 (configuration not stated)
 : 0	102	100	-23
68. CC(C)(CSc1n[nH]c(N)n1)NS(=O)(=O)c1ccc(Cl)cc1
 : -10	102	109	9
69. COc1ccc(-c2cc(-c3ccc(C)cc3)nc(N3CCCCC3)n2)cc1
 : 5	103	102	-82
70. O=C(CO/N=C/c1ccccc1OC(F)F)N1CCN(S(=O)(=O)c2ccccc2)CC1
 : 0	104	107	-32
71. COc1ccc(CC(=O)Nc2noc3ccccc23)cc1
 : 0	103	103	-6
72. CC(=O)Nc1cccc(OCC(=O)N2CC(C)CC(C)C2)c1 (configuration not stated)
 : -13	98	87	-22
73. O=c1[nH]c(CSCCO)nc2c1C1(CCCCC1)Cc1ccccc1-2
 : -18	105	105	-10
74. CC(C)=NNC(=O)CN1C(=O)NC2NC(=O)NC21 (configuration not stated)
 : -4	104	101	-49
75. Cc1cccc2cc(CN(Cc3ccco3)Cc3nnnn3CCc3ccccc3)c(=O)[nH]c12
 : 17	101	103	-1
76. Cn1c(Cc2cccs2)nnc1SCCN1C(=O)c2ccccc2C1=O
 : -2	105	103	2
77. O=S(=O)(CS(=O)(=O)Sc1ccc(Cl)cc1)Sc1ccc(Cl)cc1
 : 49	99	98	-1
78. O=C(COc1cccc(NC(=O)c2ccco2)c1)c1ccccc1
 : ·	106	109	-2
79. COc1cccc(C(=O)Nc2cccc(-c3ccc(N4CCN(C)CC4)nn3)c2)c1
 : 15	103	102	-8
80. COc1ccc(NC(=O)CCN2CCCCC2)cc1
 : ·	104	103	4
81. COc1ccccc1NC(=O)c1c(C)[nH]c(=S)c(C#N)c1-c1ccc(C)o1
 : 45	100	106	-63
82. N#CCN(CC#N)C(=O)c1sc2ccccc2c1Cl
 : ·	103	109	-2
83. O=c1c2c(-c3cccs3)csc2ncn1/N=C/c1ccccc1F
 : -2	106	113	-19
84. O=C(Nc1ccc(-n2cnnn2)cc1)C1CCN(C(=O)/C=C/c2ccccc2)CC1
 : -7	102	97	-24
85. COc1ccc(NC(=O)c2ccc3ccccc3c2OC)cc1
 : ·	97	101	5
86. CC(=O)N1CCN(C2c3cccc4cccc(c34)C2NS(=O)(=O)c2ccccc2)CC1 (configuration not stated)
 : 4	102	100	-26
87. CC(C)c1nc2ccccc2c(=O)[nH]1
 : 10	102	103	18
88. Cc1c(-c2nc3ncc(Br)cc3[nH]2)cc(C#N)n1C
 : 75	112	120	-2
89. Cc1ccc(S(=O)(=O)N2CCC(C)CC2)cc1C(N)=O
 : -4	104	100	-56
90. COc1ccc(CNC(=O)c2cccs2)cc1OC
 : -8	101	104	-16

(list continues)
Order of values: Mtb MbtI inh	PV pol inh	PV pol inh intensity	MenB inh
91. COC(=O)c1ccc(CSc2nc3ccncc3[nH]2)cc1
 : 17	105	98	-51
92. CS(=O)(=O)N1CCCC(C(=O)Nc2ccccc2)C1 (configuration not stated)
 : -6	102	102	4
93. COc1ccc(C(=O)N2CCN(c3ncnc4c3nnn4-c3ccc(F)cc3)CC2)cc1OC
 : 8	·	·	-2
94. CCN(C#N)c1nc(OC)nc(N2CCOCC2)n1
 : -8	103	102	1
95. NNC(=O)c1cc(NS(=O)(=O)c2cccs2)cc(NS(=O)(=O)c2cccs2)c1
 : 2	108	110	1
96. CSc1ccc(S(=O)(=O)N2CCC(C(N)=O)CC2)cc1
 : 5	102	101	-11
97. C/C(N)=N/C(=S)Nc1ccc(Cl)cc1
 : -1	99	99	-12
98. O=S(=O)(c1ccc(Cl)c(Cl)c1)N1CCCCC1
 : -19	101	103	1
99. COc1ccc(NC(=O)C2CCN(c3nc(-c4ccc(OC)cc4)no3)CC2)cc1
 : -10	103	104	0
100. CCN1CCc2c(sc(-n3cccc3)c2C(C)NC(=O)Nc2ccc(Br)c(C)c2)C1 (configuration not stated)
 : 0	102	105	-9
101. CN(C)S(=O)(=O)c1ccc(SCCCn2c(=O)[nH]c3ccccc32)nc1
 : 45	99	97	9
102. CSc1nnc(CNC(=O)N(c2ccccc2)c2ccccc2)n1C(C)C
 : -2	102	102	-25
103. Cc1ccccc1-c1nnc(N(C(=O)C2CC2)C2CCCC2)s1
 : 20	105	99	-67
104. O=S(=O)(Cc1ccccc1)NCc1ccco1
 : 8	101	102	16
105. OCC1CCCN(C(=S)NCCc2ccccc2)C1 (configuration not stated)
 : -3	101	101	-17
106. CCOC(=O)c1cc2sccc2n1CC(=O)OCC(=O)NCc1ccco1
 : 17	102	101	-48
107. CC(=O)N[C@@H](Cc1ccccc1)C(=O)NN
 : -9	101	108	-1
